Screens deposited in PubChem BioAssay by National Center for Advancing Translational Sciences (NCATS).
2A StopGo = High Throughput Screening for Foot and Mouth Disease Virus Antivirals | human cells with a luciferase reporter of 2A StopGo recoding; control for the full effect not named in the record | Potency, µM (doses to about 57.9 µM), for the others: at the highest dose signal change, negative = less light | 410,000 compounds, 1.2% hits | AID 1159524, 2015; active = well fitted falling curve with a large enough effect; inconclusive = small, poorly fitted or top-dose-only effect; inactive = no such curve, though single readings can be large or run the other way; tested in HEK293T cells; further: on the % scale 0 is the no-effect control and ±100 the full control effect; nearly all actives have a fitted effect of over 45% in size; luciferase light after 4 h
Cruzain inh Det = qHTS Assay for Promiscuous and Specific Inhibitors of Cruzain (with detergent); Cruzipain (Trypanosoma cruzi), P25779; purified cruzain, Z-FR-AMC fluorescence, 0.01% Triton; Potency, µM, for inactives: max response, negative = inhibition, actives largely listed as inhibitors; 200,000 compounds, 0.43% hits;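 further: plate controls were neutral wells for no effect and buffer without enzyme for full effect; nearly all actives have a fitted effect of over 40% in size; top concentration of the series not given in the record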
Target sequence (P25779 123-467 limits assumed): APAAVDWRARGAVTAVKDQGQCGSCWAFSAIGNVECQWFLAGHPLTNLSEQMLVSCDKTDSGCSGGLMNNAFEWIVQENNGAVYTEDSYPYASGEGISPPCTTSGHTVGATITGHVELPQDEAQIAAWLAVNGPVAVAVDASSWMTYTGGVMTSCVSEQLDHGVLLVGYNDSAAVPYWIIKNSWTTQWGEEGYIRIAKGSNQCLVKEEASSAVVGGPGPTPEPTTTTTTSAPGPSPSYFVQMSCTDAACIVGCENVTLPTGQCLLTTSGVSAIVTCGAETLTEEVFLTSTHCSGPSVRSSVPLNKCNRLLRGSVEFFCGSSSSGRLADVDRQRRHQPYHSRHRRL
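Sodium acetate buffer (100 mM, pH 5.5) containing 5 mM DTT and 0.01% Triton X-100 hosted 1.5 nM cruzain and test compound for 15 min at room temperature. Cleavage of 2 uM Z-FR-AMC was then tracked by fluorescence.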
Cruzain noTriton = qHTS Assay for Promiscuous and Specific Inhibitors of Cruzain (without detergent). 200,000 compounds, 2.3% hits. purified cruzain, Z-FR-AMC fluorescence, no detergent. Potency, µM, for the others: max response, negative = inhibition, hits mostly inhibitors. AID 1476, 2009;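 further: plate controls were enzyme without inhibitor for no effect and buffer without enzyme for full effect; nearly all actives have a fitted effect of over 40% in size; top concentration of the series not given in the record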
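Detergent-free condition (0.00005% Triton X-100) in acetate buffer pH 5.5 with DTT. 1.5 nM enzyme and compound were pre-mixed 15 min, then 2 uM Z-FR-AMC substrate added; reaction progress from fluorescence change between first and third reads (60 s).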
RE007 growth inh = qHTS Assay for Inhibitors of the HIV-1 protein Vpr. Potency, µM (highest dose often 92.2 µM), without a hit: at the highest dose activity change, negative = less growth. 360,000 compounds, 0.21% hits. AID 651644, 2012. S. pombe RE007 Vpr strain, BacTiter-Glo ATP luminescence, 24 h; control for the full effect not named in the record; active = well fitted falling curve with a large enough effect; inconclusive = small, poorly fitted or top-dose-only effect; inactive = no such curve, though single readings can be large or run the other way;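 further: on the % scale 0 is the no-effect control and ±100 the full control effect; nearly all actives have a fitted effect of over 50% in size; the assay follows cell death caused by Vpr and the record does not say whether a fall means rescue or toxicity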
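Fission yeast RE007 carrying one integrated HIV-1 vpr copy, seeded at OD 0.01 in PMG+AL medium with 23 nL pinned compound. Grown 24 h at 30 degrees; viability read by BacTiter-Glo luminescence after 5 min.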
NS1 function inh = qHTS Assay for Inhibitors of Influenza NS1 Protein Function. 270,000 compounds, 0.4% hits. S. cerevisiae slowed by influenza A NS1, growth recovery by OD600. Potency, µM (highest dose often 46.1 µM), for inactives: at the top dose activity, positive = more growth; active means well fitted rising curve with a large enough effect; inconclusive means small, poorly fitted or top-dose-only effect; inactive means no such curve, though single readings can be large or run the other way; further: nearly all actives have a fitted effect of over 50% in size
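Read-out: OD600 growth recovery of NS1-expressing budding yeast. Cells grown overnight at 30C in -URA glucose medium, washed, resuspended and diluted 1:100 in 2% galactose assay medium, pH 6.0. Same strain lacking NS1 served as positive control.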
MARV entry inh = qHTS for inhibitors of binding or entry into cells for Marburg Virus; Marburg virus pseudotyped entry inhibition, cell reporter; control for the full effect not named in the record; about a third of the inactives were read at about 46 µM; Potency, µM (series often up to 37.8 µM), without a hit: top-dose activity change, negative = inhibition, actives largely listed as inhibitors; 300,000 compounds, 1.8% hits; active = well fitted inhibition curve with a large enough effect; inconclusive = small, poorly fitted or top-dose-only effect, or effect the other way; inactive = flat fitted curve, though single readings scatter; tested in HEK293 cells; about a fifth of its hits are not listed in these tables; further: on the % scale 0 is the no-effect control and ±100 the full control effect; luciferase read-out
SARS PLpro yeast = qHTS of Yeast-based Assay for SARS-CoV PLP; S. cerevisiae expressing SARS-CoV PLpro, growth rescue; control for the full effect not named in the record; Potency, µM (series often up to 32.9 µM), for inactives: top-dose activity, positive = growth rescue; 330,000 compounds, 0.19% hits; AID 485353, 2010; active means well fitted rising curve with a large enough effect; inconclusive means small, poorly fitted or top-dose-only effect; inactive means no such curve, though single readings can be large or run the other way; further: 0% is about no effect; nearly all actives have a fitted effect of over 55% in size; growth read by luminescence after 48 h
Lassa entry inh = qHTS for Inhibitors of binding or entry into cells for Lassa Virus | Lassa virus pseudotype entry inhibition, cell reporter; control for the full effect not named in the record | Potency, µM (series often up to 37.9 µM), for inactives: at the top dose activity change, negative = inhibition, usual class: inhibitors | 300,000 compounds, 1.2% hits | AID 540256, 2011; active means well fitted inhibition curve with a large enough effect; inconclusive means small, poorly fitted or top-dose-only effect, or effect the other way; inactive means flat fitted curve, though single readings scatter; tested in HEK293 cells; further: on the % scale 0 is the no-effect control and ±100 the full control effect; nearly all actives have a fitted effect of over 50% in size; luciferase read-out
Numbers without * were called inactive; u = inconclusive; x = no result given; & = joins results of further samples; [ ] = another dose, or the depositor's remark. Unless noted, the call rests on the fitted dose curve; in most records, active means well fitted curve in the direction sought with a large enough effect; inconclusive means small, poorly fitted or top-dose-only effect, or another doubt; inactive means no such curve, though single readings can be large; an effect the other way counts as inactive or inconclusive. Potency means the concentration at half of the fitted maximal effect.

SMILES	2A StopGo	Cruzain inh Det	Cruzain noTriton	RE007 growth inh	NS1 function inh	MARV entry inh	SARS PLpro yeast	Lassa entry inh
CCOCCCNC(=O)COc1ccc(OC)cc1	3.7%	-0.8%	2.7%	3.0%	-1.2%	x	7.2%	2.9%
CC1CCc2c(sc3ncn4c(SCC(=O)NCc5ccco5)nnc4c23)C1 (stereo not given)	x	0.7%	-16.5%	-7.5%	3.9%	u	u	-24.3%
COc1ccc(CCNC(=O)CCS(=O)(=O)Cc2ccccc2C)cc1OC	-15.6%	x	x	0.0%	3.7%	x	-1.3%	x
CCN(C(=O)CSc1nc2cc(C(=O)OC)ccc2c(=O)n1Cc1ccco1)c1cccc(C)c1	13.8%	-1.4%	1.4%	12.2%[3.69 µM]	-2.5%	u	3.2%	u
Fc1ccc(C2NC(=S)NC3=C2N2CCC3CC2)cc1 (stereo not given)	x	2.5%	0.0%	-5.9%	10.0%	6.3%	-4.2%	-15.7%
CCSc1ncc(/C=N/Nc2ccc(Cl)cc2)n1C	-11.4%	-14.0%	-5.9%	u	-102.4%	u	-33.4%	-10.6%
N#C/C(=C\c1c(N2CCC(C(N)=O)CC2)nc2ccccn2c1=O)S(=O)(=O)c1ccccc1	-3.2%	-4.3%	-2.6%	-4.9%	5.6%	0.2%	0.6%	-0.5%
COc1ccc(C2=NN(C(=O)COc3ncnc4ccccc34)C(c3ccco3)C2)cc1 (stereo not given)	-12.6%	x	x	6.1%	-4.7%	u	-1.1%	u
CN(CCOc1ccccc1)C(=O)c1ccc2c(=O)n3c(nc2c1)CCC3	1.6%	x	x	-2.9%	x	u	-0.4%	8.3%
COc1cc2c(cc1NC(=O)C(C)OC(=O)C1CC(=O)N(Cc3ccco3)C1)oc1ccccc12 (stereo not given)	0.0%	-7.1%	u	-10.3%	-112.5%	-23.0%	-1.0%	11.8%
O=C(CC1Oc2ccccc2NC1=O)NCCCN1CCOCC1 (stereo not given)	-12.9%	5.6%	-3.4%	-8.9%	-6.1%	x	-0.5%	x
CC1=NNC(=O)C1CC(=O)N/N=C/C(Br)=C/c1ccccc1 (stereo not given)	11.2%	x	x	-2.5%	-3.2%	x	-9.2%	x
O=C1C=CC(=O)N1CCNc1ncc(C(F)(F)F)cc1Cl	31.6µM*	x	x	2.51µM*	-49.6%	u	-5.0%	u
COc1cccc(CN2CC(C(=O)NCCCc3ccncc3)CCC2=O)c1 (stereo not given)	-16.9%	x	x	-7.3%	4.2%	u	-4.5%	-10.4%
COc1cccc(NS(=O)(=O)NC(=O)c2c(C)[nH]c3ccccc23)c1	24.4%	x	x	-3.6%	4.2%	x	1.4%	x
CC(=O)c1ccc(Nc2nc3c(S(=O)(=O)c4ccccc4)nnn3c3ccc(Cl)cc23)cc1	0.0%	-2.2%	-10.8%	x	x	u	x	x
CCn1c(SCC(=O)NC(=O)NCc2ccco2)nnc1-c1cccs1	-14.0%	2.8%	1.8%	-9.8%	13.9%	0.1%[46.1 µM]	-4.5%	-20.1%
O=C1CCc2cc(S(=O)(=O)NCc3ccc(F)cc3)cc3c2N1CC3	44.7%&17.0%[activator]	-1.1%	-6.3%	-5.4%	x	-20.1%&-20.1%	-4.7%	12.4%
COc1ccc(CC(=O)NC(C)(C)C)cc1S(=O)(=O)N1CCOCC1	-6.4%	5.3%	11.9%	10.1%	3.6%	-9.4%	-0.7%	-23.9%
COc1ccc(-c2cc(-c3ccccc3)nc(SCC(=O)Nc3ncc(C)s3)c2C#N)cc1	11.2%	-5.2%	7.94µM*	9.8%	24.4%	-1.9%	20.7%	-3.2%
C/C(=N\NC(N)=S)c1ccc(-n2ccnc2)cc1	-10.8%	x	x	10.2%	0.0%	x	3.4%	x
Cc1nc2c(C(=O)NCc3ccccc3Cl)cnn2c(C)c1Cc1ccccc1	0.0%	0.2%	-2.1%	x	x	x	x	27.0%[46.1 µM]
CC(C)(C)C(=O)CN1CCN(C2c3ccccc3-c3ccccc32)CC1	-7.8%	-6.8%	-7.1%	7.4%	-0.6%	u	-1.3%	1.1%
COc1cc(/C=N/S(=O)(=O)CCc2ccccc2)cc(OC)c1O	-16.9%	-4.6%	-6.8%	0.0%	-0.7%	-10.1%	12.3%	2.7%
O=C(Cc1ccccc1)NCC(=O)N/N=C/c1ccc(C(=O)O)cc1	4.2%	x	x	-4.7%	0.2%	x	1.2%	x
SMILES	2A StopGo	Cruzain inh Det	Cruzain noTriton	RE007 growth inh	NS1 function inh	MARV entry inh	SARS PLpro yeast	Lassa entry inh
CC1(C)CC(=O)C2=C(C1)N(c1ccccc1)C(=O)C2(O)C(F)(F)F (stereo not given)	-3.9%	0.8%	-2.9%	-14.9%	2.5%	5.2%	10.3%	-2.1%
COC(=O)c1cccc(COC(=O)c2ccc(CS(=O)(=O)c3ccc(C)cc3)cc2)c1	-28.6%	-0.6%	7.0%	-7.3%[3.69 µM]	-12.0%	u	0.1%	-5.5%
CC(C)(C)OC(=O)N1CCC(c2c(C(=O)N3CCN(c4ccc(Cl)cc4)CC3)cnn2-c2ccc(F)cc2F)CC1	-28.5%	-7.5%	29.4%	x	x	x	x	u
Cc1oc2cc(O)ccc2c(=O)c1Oc1ccccc1	-11.1%	0.6%	-1.3%	-29.7%	-7.9%	2.8%	-2.1%	16.0%
CCOC(=O)N1CCN(C(=O)COC(=O)C2CCN(S(=O)(=O)c3ccc(C)c(C)c3)CC2)CC1	-22.3%	x	x	-16.8%	x	1.0%	-2.8%	0.5%
O=C(NCC(c1cccnc1)N1CCN(c2ccccc2)CC1)c1ccco1 (stereo not given)	x	x	x	-5.4%	10.4%	-8.3%	x	10.6%
CC12CN3CC(C)(CN(C1)C31C(=O)N(Cc3ccccc3)c3ccccc31)C2=O (stereo not given)	x	3.3%	-3.1%	x	-9.6%	x	-0.4%	x
Cn1cccc1CC(=O)NNC(=S)Nc1ccc(Cl)cc1Cl	16.7%	1.1%	3.2%	16.1%	5.2%	-4.6%	-16.5%	-3.9%
CCc1ccc(S(=O)(=O)c2nnn3c2nc(Nc2cc(OC)ccc2OC)c2sccc23)cc1	-7.4%	-0.8%	15.7%	x	x	x	x	8.8%[46.1 µM]
CC(C)(C)NC(=O)COC(=O)c1ccccc1NC(=O)c1ccco1	-5.1%	x	x	2.8%	2.0%	12.6%[46.1 µM]	-7.1%	-5.5%
O=C(Nc1c2c(nn1-c1cccc(Cl)c1)CS(=O)(=O)C2)c1ccco1	-16.1%	x	x	-4.8%	7.8%	x	6.4%	x
CCCCn1c(N)c(N(CC(C)C)C(=O)CCCn2c(=O)oc3ccccc32)c(=O)[nH]c1=O	-1.1%	x	x	7.5%	x	25.5%[46.1 µM]	-6.5%	5.5%
Cc1c(C(=O)OCC(=O)N2CCCC(C)C2)oc2ccccc12 (stereo not given)	38.5%[activator]	x	x	-7.3%	x	u	-3.5%	-28.0%
Cc1cccc(OCc2ccc(-c3nc(C#N)c(N4CCN(c5ccccc5)CC4)o3)o2)c1	0.0%	6.9%	-9.3%	x	x	31.8%[46.1 µM]	x	20.4%[46.1 µM]
Cc1ccc(NC(=O)COc2ccc(Br)cc2CO)cc1	-6.9%	-2.6%	-0.3%	-11.7%	-72.4%	6.4%	-6.6%	22.6%
CC(=O)N1CCN(CC(c2ccccc2)c2ccccc2)CC1	-8.2%	x	x	7.8%	14.7%	x	4.5%	x
COc1ccc(-c2c3c(nc4sc(C(=O)Nc5cccc(OC)c5)c(N)c24)CC(C)(C)CC3=O)cc1	-5.6%	-5.2%	5.5%	x	x	u	x	-6.3%[46.1 µM]
CCOC(=O)NN1C(=O)c2ccccc2NC1c1ccccc1 (stereo not given)	-10.1%	-3.4%	-12.3%	4.7%	-5.6%	-24.3%	-12.7%	14.9%
Cc1cnc(C(=O)OCC(=O)Nc2ccc(Br)cc2F)cn1	-10.0%	x	x	0.8%	x	-0.9%	-4.7%	0.2%
COc1cccc(CN(C)S(=O)(=O)c2c(C)noc2C)c1OC	u	x	x	1.2%	x	0.7%	0.0%	-0.9%
CCOC(=O)C1(CC2CCCCO2)CCN(C(=O)Nc2ccc3c(c2)OCO3)CC1 (stereo not given)	12.1%	x	x	-17.6%	-0.8%	-0.4%[46.1 µM]	-0.2%	0.7%
Cc1ccc(NC(=O)CN(C)C(=S)NC2CC2)cc1	-5.5%	x	x	-1.0%	x	20.5%[46.1 µM]	0.2%	1.9%
COCCNS(=O)(=O)c1cc(OC)c(C)cc1C	-9.9%	x	x	-7.0%	4.3%	x	0.5%	x
NC(=O)C1CCN(C(=O)c2ccc(OCC(=O)Nc3cccc(C(F)(F)F)c3)cc2)CC1	-9.7%	x	x	7.4%	x	-21.1%	-2.3%	1.1%
COc1ccc(C(=O)NCCc2nnc(SCC(=O)Nc3ccccc3C(C)C)n2C)cc1	3.2%	-0.4%	-4.3%	8.0%	-0.3%	-5.3%	-4.6%	1.5%
CN(C)c1ncnc2c1ncn2C1CCCCO1 (stereo not given)	9.5%	x	x	7.0%	x	7.0%[46.1 µM]	x	-1.4%[46.1 µM]
CN(C)CCCN(Cc1cc2cc3c(cc2[nH]c1=O)OCO3)C(=S)Nc1ccccc1	-16.8%	x	x	4.8%	2.9%	u	-0.8%	u
CN(CC(=O)Nc1ccccc1Br)C(=O)c1cc2c(s1)CCCCC2	22.4%	x	x	-9.1%	x	9.5%	-18.4%	3.4%
CN1CCN(c2ccc(-c3cccc(NC(=O)COc4ccc(Cl)cc4Cl)c3)nn2)CC1	u	x	x	-19.2%	x	u	x	4.47µM*
